Screens from PubChem BioAssay.
M1 ag = M1 muscarinic receptor agonists, primary screen, CHO-M1 cells, Fluo-4 calcium, agonist mode; Muscarinic acetylcholine receptor M1; B-score at 10 µM; Fluo-4 calcium fluorescence; stronger effect = higher value; 64,000 compounds, 3% hits; AID 626, 2007;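 active = fluorescence rise, raw or as B-score row- and column-corrected plate score, outside the 99.7% band of its plate's samples, either direction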
D1 allo mod = D1 CRE-luciferase signal change, two-sided – cell-based, HEK293 D1, dopamine EC30, D1 allosteric modulator project, primary screen | D(1A) dopamine receptor (Homo sapiens), P21728 | 58,000 compounds, 5.9% hits | B-score at 10 µM | dopamine EC30 potentiation; actives deviate in either direction;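 active = luminescence count or its row- and column-corrected plate score outside the 99.7% band of the plate's sample wells, on either side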
Target sequence (P21728 whole entry, looked up): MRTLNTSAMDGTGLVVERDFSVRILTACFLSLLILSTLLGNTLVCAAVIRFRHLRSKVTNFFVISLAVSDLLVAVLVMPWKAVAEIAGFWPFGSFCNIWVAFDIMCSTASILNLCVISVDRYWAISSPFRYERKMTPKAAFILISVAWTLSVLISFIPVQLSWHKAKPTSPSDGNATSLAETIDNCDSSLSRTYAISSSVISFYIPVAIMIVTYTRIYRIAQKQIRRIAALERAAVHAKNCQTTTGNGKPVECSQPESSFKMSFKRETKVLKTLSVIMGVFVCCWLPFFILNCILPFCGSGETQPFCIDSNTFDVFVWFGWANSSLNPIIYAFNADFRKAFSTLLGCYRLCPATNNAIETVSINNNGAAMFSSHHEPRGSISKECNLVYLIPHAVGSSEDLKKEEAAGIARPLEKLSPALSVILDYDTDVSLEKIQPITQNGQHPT
Ec RNAP inh = E. coli RNAP inhibitors, biochemical; DNA-directed RNA polymerase subunit beta (Escherichia coli (strain K12)), P0A8V2; E. coli RNA polymerase, fluorescence transcription assay; inhibition, %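 (tested at 10 µM)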; 62,000 compounds, 0.2% hits; AID 559, 2006; in the data active = inhibition above about 20%;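 note: 0% = enzyme without compound and 100% = no enzyme blank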
Fluor 339 460 = intrinsic fluorescence of library compounds, ex339/em460 – biochemical, MLSMR library, data from DPM-DC assay, artefact control, profiling panel | AID 709, 2007 | compound autofluorescence, ex339/em460 nm, NADH buffer; stronger effect = higher value; 1 = no-compound wells, NADH background | 65,000 compounds, 5.5% hits | fluorescence fold increase at 10 µM;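 active = at 10 µM, mean starting fluorescence two-fold or more over control wells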;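 note: signal is the first read of a kinetic run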
5HT1a ag = human 5-HT1a receptor agonists, primary screen, cell-based, CHO, Ga15 NFAT-bla reporter; 5-hydroxytryptamine receptor 1A (Homo sapiens), P08908; CHO 5-HT1a Ga15 NFAT-bla reporter, FRET ratio; 0% basal, 100% maximal reference agonist; activation, % at 10 µM; 65,000 compounds, 0.56% hits; AID 567, 2006;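 active = activation above the screen-wide mean activation plus 3 SD, cut at about 19% in these data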;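 note: 0% = DMSO wells and 100% = 5-CT at EC100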
Hsp90 inh = tumor Hsp90 inhibitors, primary screen, cell lysate, fluorescence polarization, NCI-N417 lysate. Cy3B-geldanamycin FP displacement. AID 429, 2006. 64,000 compounds, 0.35% hits. Heat shock protein HSP 90-alpha (Homo sapiens), P07900. inhibition, % at 30 µM;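 active = inhibition above 50%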;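 note: 0% = tracer plus lysate wells and 100% = tracer alone without lysate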
M1 antagonist = antagonists of rat M1 muscarinic receptor; Muscarinic acetylcholine receptor M1 (Rattus norvegicus), P08482; 64,000 compounds, 3.4% hits; B-score at 10 µM; AID 628, 2007; CHO-M1 cells, Fluo-4 calcium, ACh EC80 antagonist mode; stronger effect = lower value;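 active = calcium fluorescence response, raw or row-and-column corrected B-score, differing from the plate sample mean either way at a set confidence level, mostly lower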
Target sequence (P08482 whole entry, looked up): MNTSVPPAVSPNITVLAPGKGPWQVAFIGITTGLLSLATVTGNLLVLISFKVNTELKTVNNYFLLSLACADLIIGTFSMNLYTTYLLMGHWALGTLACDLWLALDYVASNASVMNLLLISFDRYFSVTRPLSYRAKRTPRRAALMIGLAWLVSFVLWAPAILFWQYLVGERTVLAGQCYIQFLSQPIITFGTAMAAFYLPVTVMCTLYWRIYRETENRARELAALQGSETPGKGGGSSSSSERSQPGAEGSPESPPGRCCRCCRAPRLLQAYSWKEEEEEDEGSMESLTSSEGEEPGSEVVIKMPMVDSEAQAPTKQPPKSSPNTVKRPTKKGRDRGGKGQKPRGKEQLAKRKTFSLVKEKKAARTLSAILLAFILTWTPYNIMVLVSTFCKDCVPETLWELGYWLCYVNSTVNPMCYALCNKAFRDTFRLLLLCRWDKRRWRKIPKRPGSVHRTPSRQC
Her2 expr inh = inhibitors of Her2 protein expression, primary screen, SKBR-3 cells, AlphaScreen, 66K library | Receptor tyrosine-protein kinase erbB-2 (Homo sapiens), P04626 | SKBR-3 HER2 protein level, 18-24 h; stronger effect = lower value | HER2 level % of control, % at 10 µM | 65,000 compounds, 0.69% hits;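 active = HER2 level under 5% of the carrier-only control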;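 note: 100% = DMSO carrier and 0% = 500 nM PU-H71 HSP90 inhibitor; lower value means stronger loss of Her2 protein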
An asterisk follows results filed as active; . = no result given.

Second line of a record – M1 ag	D1 allo mod	Ec RNAP inh	Fluor 339 460	5HT1a ag	Hsp90 inh	M1 antagonist	Her2 expr inh
- COc1ccc(OC)c(-c2oc3ccccc3c(=O)c2O)c1
  0.23	1.1	9	1.2	-0.5	-2	0.0073	77
- Cc1nc(C)c(C(=O)Nc2ccc(Oc3ccccc3)cc2)o1
  -0.97	-1.2	7	1	0.8	-11	-0.92	69
- CCOc1cc(N2CCOCC2)c(OCC)cc1NC(=O)COC(=O)CCc1c[nH]c2ccccc12
  -0.0011	0.49	6	1	-0.5	8	-0.21	118
- Cc1ccc(-c2nnc(Nc3ccccc3)o2)cc1
  -0.21	-4.2*	7	1.2	-5.1	-1	0.064	55
- CCCCOc1ccc(NC(=O)CN2CCN(C(=O)OCC)CC2)cc1
  -0.014	.	4	1.1	0.7	-1	-0.16	124
- COc1ccc(CCN(C)C(=O)C2CCCN(Cc3ccc(OC)c(OC)c3)C2)cc1OC (stereo unspecified)
  0.42	5.3*	4	1.2	-0.7	0	-0.12	125
- COc1ccc(S(=O)(=O)NC(CC(=O)NCc2ccccc2OC)c2ccco2)cc1 (stereo unspecified)
  -0.62	-0.3	1	1.1	-1.9	-2	-0.3	78
- C=CCOC(=O)c1sc(NC(=O)c2ccco2)nc1C
  0.49	-2.7	7	1.1	-2.4	0	-0.76	79
- COCCCNS(=O)(=O)c1ccc(OC)c(Cl)c1Cl
  .	0.35	-2	1.1	1.5	-4	.	122
- COc1cc(C)nc(Oc2ccc(OCCOc3ccc(C)cc3)nn2)n1
  0.48	-1.1	5	1.1	-0.1	0	0.15	105
- CCN(CCCNC(=O)c1[nH]c(C)c(C(C)=O)c1C)c1ccccc1
  -1.8	-1.3	2	1.1	-4.2	-5	-1.5	166
- CCCc1[nH]nc2c1C(c1cccnc1)C(C#N)=C(N)O2 (stereo unspecified)
  0.21	6.7*	3	1.1	-2.5	-1	0.66	106
- CC1CCN(C(=O)CN(C)S(=O)(=O)c2cccc3nsnc23)CC1
  -1.4	-1.1	4	1.1	-1.2	2	0.18	88
- COc1cc(C2C(C#N)=C(N)Oc3cc(C)oc(=O)c32)ccc1OC(=O)N1CCOCC1 (stereo unspecified)
  .	-3.7*	3	1.1	-1.7	-5	.	126
- CCCC(C(=O)NCc1ccco1)N(C(=O)CNS(=O)(=O)c1ccccc1)c1ccccc1OC (stereo unspecified)
  -0.2	-0.7	7	1.1	-0.3	1	0.37	98
- CCOC(=O)CC1=CC(=O)Nc2ccccc2N1
  0.21	0.54	5	1.1	-3.8	-3	-1	85
- COC(=O)c1cc2oc(C)cc2n1CC(=O)N(C)c1ccccc1
  0.53	0.42	4	0.97	-1.1	-2	-0.29	116
- COc1ccc(-c2nc(C(N)=O)c3[nH]c(=O)n(-c4cccc(C)c4)c3n2)c(OC)c1
  -0.63	7.7*	-2	1.4	0.1	-6	-0.76	97
- COc1ccc(-n2c(Cc3cc(=O)[nH]c(=O)[nH]3)nnc2SCC(=O)NC2CCCC2)cc1
  -0.69	-0.09	-1	1.1	-4.5	-1	0.77	102
- COc1nc(Oc2ccc(C(=O)OCC(N)=O)cc2)nc(N(C)C)n1
  -0.47	.	4	1.1	-1.2	1	-0.21	69
- O=C(c1ccc(S(=O)(=O)N2CCCCC2)cc1)c1nnc(-c2ccc(Cl)cc2)o1
  -0.5	0.0076	1	1.1	-4.1	.	0.92	47
- CCOC(=O)c1cnn(-c2nc(-c3ccccc3)nc3c2COC(C)(C)C3)c1N
  -0.48	0.021	6	1.1	-0.6	.	-0.29	77
- COc1ccccc1Nc1nc(NCCO)c2ccccc2n1
  -0.072	-1.7	7	1.2	-2.1	1	0.43	116
- Cc1cnn(C(=S)NCCc2ccccc2)c1
  -0.18	0.81	10	1.1	3.4	-2	-1.3	119
- Cc1nnc(SCc2cnc(-c3ccccc3)o2)[nH]c1=O
  0.16	-0.75	6	1.1	-4.0	-20	0.57	96
- N#Cc1c(NC(=O)CN2CCN(S(=O)(=O)c3ccc4c(c3)OCCO4)CC2)sc2c1CCC2
  -0.0033	0.66	6	1.1	-1.0	-13	0.081	94
- Cc1ccc2c(c1)N(CCC(=O)NCC1CCCO1)C(=O)CO2 (stereo unspecified)
  0.28	0.16	-3	1.1	-1.3	0	-0.00063	83
- Cn1c(=O)[nH]c(=O)c2c1nc(N1CCCCCC1)n2CC(=O)c1ccccc1
  -0.77	0.068	14	1.1	2.5	-1	0.41	109
- Cn1c(=O)c2c(nc(N3CCC(C(N)=O)CC3)n2CCSc2nc3ccccc3s2)n(C)c1=O
  -0.6	.	8	1	0.9	2	0.08	134
- O=S(=O)(NCc1ccco1)c1cccc(S(=O)(=O)N2CCOCC2)c1
  -0.31	-0.043	6	1	-1.4	-10	-0.028	100
- O=C(c1cccc2ccccc12)N1CCC(N2CCN(c3ccccc3)CC2)CC1
  -0.31	-1.1	6	1	2.3	-5	0.53	91
- CCn1c(SCC(=O)Nc2cccc(OC)c2)nnc1-c1ccc(Cl)cc1
  -0.024	-0.22	5	1.1	17	2	0.31	84
- O=C(N/C(=N\O)c1ccccc1)Nc1ccc(Cl)cc1
  -0.36	-0.039	10	1.1	-2.1	-7	-3.5*	75
- Cc1ccc(OCCOCCn2ccnc2)c(Br)c1
  0.028	-0.18	.	1.1	0.3	-5	-0.39	79
- CCOC(=O)N1CCN(Cc2ccccc2F)CC1
  0.65	-0.85	8	1	-0.2	-4	0.66	116
- Cc1cc(C)nc(SCCn2c(N3CCC(C)CC3)nc3c2c(=O)n(C)c(=O)n3C)n1
  -0.63	-0.82	7	1.1	-3.2	.	0	130
- CCC(C)N(CC(=O)NCc1ccc(OC)cc1)C(=O)c1csnn1 (stereo unspecified)
  -0.71	-0.59	-2	1.1	-0.2	-3	-0.74	110
- COCCNC(=O)CS(=O)Cc1nc(-c2ccc(Cl)cc2)oc1C (stereo unspecified)
  -0.65	-0.17	5	1.1	-3.4	-3	0.0094	103
- O=C(NCc1ccc(F)cc1)C1C2C=CC3(CN(Cc4cccnc4)C(=O)C13)O2 (stereo unspecified)
  0.3	-0.48	-2	1	2.9	1	0.47	129
- COc1ccc(CCNC(=O)C2CC(=O)N(c3ccc(F)cc3)C2)cc1OC (stereo unspecified)
  -0.8	-1	4	1.1	.	.	-0.88	77
- CCCN(CCO)Cc1ccc(Cl)c(Cl)c1
  -0.48	-1.4	4	1.1	-1.1	-2	0.22	123
- O=C1CC2CS(=O)(=O)CC2N1c1ccc(Oc2ccccc2)cc1 (stereo unspecified)
  -0.22	-0.69	9	1	-2.9	-1	-0.041	115
- CC(OC(=O)c1nsc(Cl)c1Cl)C(=O)NCc1ccco1 (stereo unspecified)
  -0.016	0.81	1	1.1	-0.9	-4	0.52	87
- CCOC(=O)c1c(C)oc2ccc(OC(=O)N3CCOCC3)cc12
  -1.5	.	-1	1.1	1.6	.	-0.72	113
- CCC(C)NC(=O)c1ccc(CS(=O)(=O)c2ccc(OC)cc2)o1 (stereo unspecified)
  0.063	0.29	1	1.1	17	2	0.27	122

4 entries out of the list, arranged by number of heavy atoms, smallest number first:
Second line of a record – M1 ag	D1 allo mod	Ec RNAP inh	Fluor 339 460	5HT1a ag	Hsp90 inh	M1 antagonist	Her2 expr inh
- Cc1ccc(OCCOCCn2ccnc2)c(Br)c1
  0.028	-0.18	.	1.1	0.3	-5	-0.39	79
- CC(OC(=O)c1nsc(Cl)c1Cl)C(=O)NCc1ccco1 (stereo unspecified)
  -0.016	0.81	1	1.1	-0.9	-4	0.52	87
- COCCNC(=O)CS(=O)Cc1nc(-c2ccc(Cl)cc2)oc1C (stereo unspecified)
  -0.65	-0.17	5	1.1	-3.4	-3	0.0094	103
- Cc1cc(C)nc(SCCn2c(N3CCC(C)CC3)nc3c2c(=O)n(C)c(=O)n3C)n1
  -0.63	-0.82	7	1.1	-3.2	.	0	130

Next section.
Second line of a record – M1 ag	D1 allo mod	Ec RNAP inh	Fluor 339 460	5HT1a ag	Hsp90 inh	M1 antagonist	Her2 expr inh
- CC(C)(C)c1ccccc1OCCN1CCCC1
  0.12	0.4	4	1.1	-1.1	0	-11*	82
- COc1ccc(-c2cc3nc(C)cc(NCCO)n3n2)cc1
  -0.06	.	0	2	-2.4	3	0.013	101
- Cc1cc(C)nc(SCC(=O)c2ccc(O)cc2O)n1
  -0.7	-0.72	5	1	1.2	-3	0.026	116
- O=C(Nc1ccccn1)c1ccc(=O)[nH]n1
  -1.9	.	11	1.1	-1.9	-2	0.47	87
- COCCN1Cc2cccc(C(=O)Nc3cccnc3)c2C1=O
  0.017	2.9	7	1	1.4	1	-0.14	91
- COc1ccc(CN2CCN(c3ccccn3)CC2)cc1OCc1ccccc1
  2.2	-1.8	1	1.1	3.4	-1	-2.7*	106
- CCCC(C(=O)NC1CCCCC1)N(Cc1ccco1)C(=O)CNS(=O)(=O)c1ccccc1 (stereo unspecified)
  1.8	-1.2	2	1.1	0.2	-3	0.76	106
- Cc1cccc(-n2c(CNC(=O)c3ccccc3)nnc2SCC(=O)Nc2nccs2)c1
  -1.1	3.7	7	1.1	-2.4	-2	0.87	103
- Cc1c(C)n(CC(O)CN2CCOCC2)c2ccccc12 (stereo unspecified)
  -0.11	.	11	1.1	-0.5	-6	-0.043	146
- O=C(c1cnn2c(C(F)(F)F)cc(-c3ccc(Br)cc3)nc12)N1CCOCC1
  2.3	-0.21	3	1.4	-2.5	-2	-0.44	119
- Cc1ccc(C)c2[nH]c(=O)c(CN(CCCN(C)C)C(=O)NCc3ccccc3)cc12
  -0.25	-0.012	3	1.6	-0.2	-1	0.37	107
- COC(=O)CSc1nnc(-c2ccncc2)n1N
  4.5*	0.028	9	1.1	0.8	.	1.9	80
- COc1cc(-c2nc(-c3ccc(NC(=O)c4ccc5c(c4)OCO5)cc3)no2)cc(OC)c1OC
  -0.22	-1.3	5	2.1*	0.6	-15	0.18	-3.3*
- CN(C)CCCOC(=O)c1ccc(Br)cc1
  -0.1	-0.55	.	1.1	0.0	1	-0.58	106
- O=C(COc1nc2ccccc2nc1N1CCOCC1)N1CCc2ccccc21
  -1.3	1.2	5	1.1	0.6	-2	0.22	71

These rows are one share of the data. The share of hits here may be higher or lower than overall.
